Assay outcomes: PubChem BioAssay, National Center for Advancing Translational Sciences (NCATS)
PINK1 expr mod: PINK1 expression modulation; PINK1 immunofluorescence, high-content cytometry, 24 h; Potency, µM (top dose mostly 76.6 µM), inactives show top-dose activation (PINK1 increase), hits mostly activators; 410,000 compounds, 0.2% hits; active = well fitted activation curve with a large enough effect; inconclusive = small, poorly fitted or top-dose-only effect; inactive = flat fitted curve, though single readings scatter; cell line not stated here;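 also: potency is read from the fitted curve at half-maximal effect; % of control where 0% means no effect; nearly all actives have a fitted effect of over 65% in size; a mitochondrial uncoupler was the plate control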
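A stable cell line was treated with compounds at 5 concentrations for 24 hours, with CCCP as control. PINK1 levels and mitochondrial localization were measured by immunofluorescence with mitochondrial, cell and nuclear markers after fixation, read by laser-scanning cytometry.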
D2 ag: human D2 receptor agonism in beta-arrestin assay. DiscoveRx PathHunter D2 beta-arrestin, luminescence, 90 min; 100% = 57 uM dopamine signal. activation, % (concentration not given with the values). 360,000 compounds, 0.084% hits. AID 624465; in the data active = activation above about 40%; inconclusive = about 15% to 40%; inactive = below about 15%; also: the text of the record calls up to 30% inactive
Target sequence (P14416 whole entry, looked up): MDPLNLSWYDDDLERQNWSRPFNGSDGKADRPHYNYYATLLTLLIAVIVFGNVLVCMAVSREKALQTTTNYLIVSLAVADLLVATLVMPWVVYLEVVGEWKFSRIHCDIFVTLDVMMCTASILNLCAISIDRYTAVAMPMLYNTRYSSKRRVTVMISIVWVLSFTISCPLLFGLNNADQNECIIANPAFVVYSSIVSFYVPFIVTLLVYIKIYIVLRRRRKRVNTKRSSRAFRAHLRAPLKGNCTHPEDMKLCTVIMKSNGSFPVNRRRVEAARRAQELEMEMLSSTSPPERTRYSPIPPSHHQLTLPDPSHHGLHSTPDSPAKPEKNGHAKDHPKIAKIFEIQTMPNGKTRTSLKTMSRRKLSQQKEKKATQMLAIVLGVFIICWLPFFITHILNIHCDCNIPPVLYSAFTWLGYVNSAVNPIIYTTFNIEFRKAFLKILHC
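Agonist mode: compounds alone added to overnight-plated D2 PathHunter cells for 90 min at 37 C, with 57 uM final dopamine (EC100) defining full response. Beta-arrestin recruitment detected by chemiluminescent reagent, read after 1 h at ambient temperature.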
Menin-MLL FL inh: inhibitors of human menin-MLL interaction, wild-type MLL peptide | Fluorescence polarization, fluorescein-MLL peptide displacement from menin | FP activity change, % at 61.4 µM | 290,000 tested, under 10 active | AID 1766; inconclusive = falling polarisation curve, or a change in total fluorescence; inactive = total fluorescence flat and polarisation flat or rising; no compound was filed as active; the % refers to the polarisation; negative = inhibition;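 also: % of control where 0% means no effect; inhibitors lower the polarisation; unlabelled MLL peptide was the positive control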
Sfp inh: inhibitors of Bacillus subtilis Sfp phosphopantetheinyl transferase | Q9F4F7 | Biochemical Sfp PPTase activity, qHTS | Potency, µM, without a hit: max response, negative = inhibition, usual class: inhibitors | 310,000 compounds, 3.5% hits | AID 1490; active = well fitted inhibition curve with a large enough effect; inconclusive = small, poorly fitted or top-dose-only effect, or another doubt; inactive = no such curve, though single readings can be large or run the other way;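 also: the enzyme is Sfp with the accession as filed and its product quenches rhodamine fluorescence; potency is read from the fitted curve at half-maximal effect; 0% = enzyme reaction without inhibitor and -100% = no enzyme wells; top concentration of the series not given in the record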
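Fluorescence-quenching assay: 15 nM Sfp-PPTase preincubated 15 min at room temperature with compound, then 5 uM rhodamine-CoA and 12.5 uM BHQ-2-labelled YbbR peptide added. Fluorescence (ex 525/em 598 nm) read at start and after 30 min; difference gives rate.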
gsp ag: agonists of gsp mutant (McCune-Albright syndrome); gsp mutant cells, cAMP HTRF, 30 min; control for the full effect not named in the record; Potency, µM (doses to about 76.9 µM), for the others: at the top dose activation (cAMP increase), hits mostly activators; 340,000 compounds, 0.13% hits; active = well fitted activation curve with a large enough effect; inconclusive = small, poorly fitted or top-dose-only effect, or another doubt; inactive = no such curve, though single readings can be large or run the other way; cell line not stated here;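 also: phosphodiesterase inhibitor Ro 20-1724 added with compounds to block cAMP breakdown; potency is read from the fitted curve at half-maximal effect; nearly all actives have a fitted effect of over 60% in size; about a fifth of the inactives were tested at one dose only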
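Cells in DMEM/10% FBS with G418 were pretreated with compounds in DMSO plus […] (300 uM stock) for 30 min at 37C. cAMP was measured by HTRF (cAMP-d2 plus anti-cAMP antibody-K) after 30 min at room temperature.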
gsp antag: antagonists of gsp mutant (McCune-Albright syndrome); AID 624288; Potency, µM (series often up to 76.9 µM), inactives show top-dose activity change, negative = inhibition, usual class: inhibitors; 340,000 compounds, 0.4% hits; gsp-mutant cells, cAMP HTRF, 30 min; control for the full effect not named in the record; active = falling curve of any shape with a large fitted effect; inconclusive = falling curve, mostly with a smaller effect; inactive = flat or rising curve; cell line not stated here;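 also: intracellular cAMP measured with PDE inhibitor Ro 20-1724 present during compound exposure; potency is read from the fitted curve at half-maximal effect; % is scaled to controls: 0 for no effect and ±100 for the full control effect; nearly all actives have a fitted effect of over 65% in size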
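G418-selected cells were plated in DMEM/10% FBS for 16-24 h at 37C, then treated with compounds plus the PDE inhibitor […] (300 uM solution added) for 30 min at 37C. Intracellular cAMP was measured by HTRF after 30 min lysis at room temperature.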
ClpP mod: qHTS Assay for Activators of ClpP; ATP-dependent Clp protease proteolytic subunit (Bacillus subtilis (strain 168)), P80244; AID 651965, 2013; Potency, µM (top dose mostly 57.5 µM), for the others: at the highest dose activity change, negative = active; 340,000 compounds, 1.9% hits; purified B. subtilis ClpP, FRET peptide cleavage, 20 min; active = well fitted falling curve with a large enough effect; inconclusive = small, poorly fitted or top-dose-only effect; inactive = no such curve, though single readings can be large or run the other way; also: potency is read from the fitted curve at half-maximal effect; the source files actives as falling curves though it sought activators and does not explain the sign; nearly all actives have a fitted effect of over 65% in size; many hits overshoot -100%
Target sequence (P80244 whole entry, looked up): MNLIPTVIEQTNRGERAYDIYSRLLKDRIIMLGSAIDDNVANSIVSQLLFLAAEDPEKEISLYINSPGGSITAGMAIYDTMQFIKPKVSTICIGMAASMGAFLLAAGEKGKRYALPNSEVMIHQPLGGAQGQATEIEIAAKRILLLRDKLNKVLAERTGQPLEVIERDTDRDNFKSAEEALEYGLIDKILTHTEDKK
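FRET quenching reversal measured ClpP activation: 10 microg/mL B. subtilis ClpP at pH 8 with the FRET-FV decapeptide, read at 430 nm after 320 nm excitation. The 20-min minus 0-min signal was scaled between DMSO/no-enzyme wells and ADEP (5.8 microM final).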
* marks the source's active call; other numbers are inactive results; [ ] = another dose, or the depositor's remark.

Screening Cc1ccc(C(=O)N2CCN(C3CCCCC3)CC2)s1 returned PINK1 expr mod inconclusive, D2 ag -1.2, Menin-MLL FL inh -9.4, Sfp inh 16%, gsp ag 5%, gsp antag 16% and ClpP mod 0.2%.
For COc1ccc(NC(=S)N(CCN(C)C)C(C)c2ccco2)cc1 (stereo unspecified) the results were PINK1 expr mod -0.5%, D2 ag 1.3, Menin-MLL FL inh -0.8, Sfp inh 6%, gsp ag -9%, gsp antag 7% and ClpP mod -7.7%.
Screening CN1C(=O)c2ccccc2C(C(=O)O)C1c1cccc(Cl)c1 (stereo unspecified) returned PINK1 expr mod -0.6%, D2 ag -4.7, Menin-MLL FL inh 0.4, Sfp inh 29%, gsp ag -41%[inhibitor], gsp antag -1% and ClpP mod -1.0%.
Screening COCC(C)n1c(C)cc(C(=O)CSc2nnnn2C2CCCC2)c1C (stereo unspecified) returned PINK1 expr mod 0.6%, D2 ag -1.2, gsp ag -23%, gsp antag -1% and ClpP mod -1.0%.
O=C(CN1C(=O)C2CCCCN2C(=O)c2ccccc21)N1CCCc2ccccc21 (stereo unspecified) was read as PINK1 expr mod -1.8%, D2 ag -1.2, Menin-MLL FL inh 4.6, Sfp inh 16%, gsp ag 0%, gsp antag -8% and ClpP mod -1.7%.
For c1ccc(N=P(N2CCOCC2)(N2CCOCC2)N2CCOCC2)cc1 the results were PINK1 expr mod 7.1%[38.3 µM], D2 ag -1.0, Menin-MLL FL inh 0.9, Sfp inh 18%, gsp ag -3%, gsp antag 15% and ClpP mod 1.4%.
For Cc1csc(NC(=O)c2cccc(Cn3nc(C)c(Br)c3C)c2)n1 the results were PINK1 expr mod 6.6%[38.3 µM], D2 ag 0.1, Menin-MLL FL inh 3.6, Sfp inh 7%, gsp ag -5%, gsp antag -24% and ClpP mod -2.5%.
Screening Cc1coc(C)c1C(=O)CC1(O)C(=O)N(C)c2ccc(Cl)cc21 (stereo unspecified) returned PINK1 expr mod 4.3%, D2 ag -0.9, Menin-MLL FL inh 6.9, Sfp inh -6%, gsp ag -1%, gsp antag -5% and ClpP mod -1.0%.
`CS(=O)(=O)N(CC(=O)N/N=C/c1ccccc1C(=O)O)c1cccc(Cl)c1Cl` gave PINK1 expr mod 0.0%, D2 ag -1.3, Menin-MLL FL inh -0.1, Sfp inh -5%, gsp ag -9%[15.4 µM] and gsp antag 7%.
`O=C1c2ccccc2C(=O)N1CN(C(=O)c1ccccc1[N+](=O)[O-])c1ccc(F)cc1` gave PINK1 expr mod 1.2%, D2 ag -3.3, Menin-MLL FL inh 5.5, Sfp inh 5%, gsp ag 21%[15.4 µM], gsp antag -11% and ClpP mod 0.6%.
For CCC(=O)c1ccc(OCC(=O)OCC(=O)NCCCc2ccccc2)cc1 the results were PINK1 expr mod 2.8%, D2 ag -2.5, gsp ag -33%[inhibitor], gsp antag 2% and ClpP mod 1.2%.
`CN1C(=O)c2ccccc2Sc2ccc(C(=O)O)cc21` gave PINK1 expr mod 3.9%, D2 ag -0.8, Menin-MLL FL inh -2.3, Sfp inh 15%, gsp ag -1%[15.4 µM], gsp antag 8% and ClpP mod 1.7%.

Overlap with the part before: 3 entries; new compounds follow.
`O=C1c2ccccc2C(=O)N1CN(C(=O)c1ccccc1[N+](=O)[O-])c1ccc(F)cc1` gave PINK1 expr mod 1.2%, D2 ag -3.3, Menin-MLL FL inh 5.5, Sfp inh 5%, gsp ag 21%[15.4 µM], gsp antag -11% and ClpP mod 0.6%.
For CCC(=O)c1ccc(OCC(=O)OCC(=O)NCCCc2ccccc2)cc1 the results were PINK1 expr mod 2.8%, D2 ag -2.5, gsp ag -33%[inhibitor], gsp antag 2% and ClpP mod 1.2%.
`CN1C(=O)c2ccccc2Sc2ccc(C(=O)O)cc21` gave PINK1 expr mod 3.9%, D2 ag -0.8, Menin-MLL FL inh -2.3, Sfp inh 15%, gsp ag -1%[15.4 µM], gsp antag 8% and ClpP mod 1.7%.
Screening Cc1ccc(N(C(=O)C(F)(F)F)C(C(=O)NC2CCCCC2)c2cccs2)cc1 (stereo unspecified) returned D2 ag -2.4, Menin-MLL FL inh -1.1, Sfp inh 9%, gsp ag 18%, gsp antag -3% and ClpP mod 1.2%.
`O=C(c1n[nH]c(=O)c2ccccc12)N1CCN(c2ccccc2)CC1` gave PINK1 expr mod -2.1%, D2 ag -4.0, Menin-MLL FL inh 11, Sfp inh 9%, gsp ag -15%, gsp antag -2% and ClpP mod -0.4%.
Cn1c(CCN2CCCC2)nc2cc(NS(=O)(=O)c3ccccc3)ccc21 was read as PINK1 expr mod 1.0%, D2 ag -2.4, Menin-MLL FL inh 11, Sfp inh 1%, gsp ag -2%, gsp antag 12% and ClpP mod -12%.
O=C(O)/C=C/C(=O)N1CCc2ccccc21 was read as PINK1 expr mod 0.9%, D2 ag -6.8, Menin-MLL FL inh 1.0, Sfp inh 10%, gsp ag 0%, gsp antag 2% and ClpP mod -3.1%.
CCCCCN1CC(O)=C(c2ccccc2)C1=N was read as PINK1 expr mod 0.1%, D2 ag -2.6, Menin-MLL FL inh 3.7, Sfp inh 9%, gsp ag -33%[inhibitor], gsp antag 0% and ClpP mod -1.3%.
For CC(C)n1cc(NC(=O)c2cc(-c3ccccc3)on2)cn1 the results were PINK1 expr mod 8.7%, D2 ag 0.3, Menin-MLL FL inh -1.0, Sfp inh 18%, gsp ag -2%, gsp antag 11% and ClpP mod 0.3%.
O=C(NCc1cccnc1)c1cc(C2CCCCN2C(=O)c2ccc(Cl)cc2)on1 (stereo unspecified) was read as PINK1 expr mod 3.5%, D2 ag -6.3 and ClpP mod 1.1%.
`O=C(Nc1ccccc1Oc1ccccc1)[C@@H]1O[C@H](CO)[C@H](O)[C@H](O)[C@H]1O` gave PINK1 expr mod 0.5%, D2 ag -17 and ClpP mod -3.0%.
